From PubChem
TRPV1 PAM = human TRPV1 potentiation | Q8NER1 | TRPV1-expressing cells, Fluo-8 calcium influx, capsaicin EC20 potentiation; host cell line not named in the record; control for the full effect not named in the record | potentiation, % at 8.33 µM | actives 0.02% (n = 320,000); active means potentiation above 80%; inconclusive means 30% to 80%; inactive means below 30%; further: 0% is about no effect
Target sequence (Q8NER1 whole entry, looked up): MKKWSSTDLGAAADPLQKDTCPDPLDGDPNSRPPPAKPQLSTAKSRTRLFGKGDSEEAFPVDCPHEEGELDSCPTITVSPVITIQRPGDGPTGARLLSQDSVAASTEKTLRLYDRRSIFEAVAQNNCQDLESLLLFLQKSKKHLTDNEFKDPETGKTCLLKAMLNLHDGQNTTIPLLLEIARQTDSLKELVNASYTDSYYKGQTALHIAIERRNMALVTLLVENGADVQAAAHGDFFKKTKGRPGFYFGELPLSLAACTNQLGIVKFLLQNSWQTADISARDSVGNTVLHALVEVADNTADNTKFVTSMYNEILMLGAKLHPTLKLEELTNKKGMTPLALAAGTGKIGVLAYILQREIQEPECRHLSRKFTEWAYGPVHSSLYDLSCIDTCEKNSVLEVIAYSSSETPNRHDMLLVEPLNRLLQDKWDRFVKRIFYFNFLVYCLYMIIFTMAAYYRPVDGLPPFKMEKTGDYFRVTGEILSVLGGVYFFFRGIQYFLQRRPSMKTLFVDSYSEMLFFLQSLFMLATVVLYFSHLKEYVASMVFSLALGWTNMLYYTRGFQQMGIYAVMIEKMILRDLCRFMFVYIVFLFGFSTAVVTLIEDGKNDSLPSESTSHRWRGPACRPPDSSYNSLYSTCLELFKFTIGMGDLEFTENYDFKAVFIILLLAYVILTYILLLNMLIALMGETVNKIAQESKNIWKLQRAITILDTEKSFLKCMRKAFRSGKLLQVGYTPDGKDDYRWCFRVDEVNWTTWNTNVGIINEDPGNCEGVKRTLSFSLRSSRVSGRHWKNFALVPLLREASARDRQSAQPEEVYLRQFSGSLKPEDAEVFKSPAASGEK
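Fluo-8 calcium influx in TRPV1-expressing cells, kinetic read (ex 480/em 520 nm). Compound added and read 3 min for agonist activity, followed by capsaicin at EC20 final and 2 min further read for enhancement.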
Sfp inh = blocks B. subtilis Sfp PPTase activity; Potency, µM, without a hit: max response, negative = inhibition, actives largely listed as inhibitors; Q9F4F7; Biochemical Sfp PPTase activity, qHTS; actives 3.5% (n = 310,000); active means well fitted inhibition curve with a large enough effect; inconclusive means small, poorly fitted or top-dose-only effect, or another doubt; inactive means no such curve, though single readings can be large or run the other way;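 further: the enzyme is Sfp with the accession as filed and its product quenches rhodamine fluorescence; potency means the concentration at half of the fitted maximal effect; 0% = enzyme reaction without inhibitor and -100% = no enzyme wells; top concentration of the series not given in the record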
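Reaction rates are the 30-min fluorescence difference (ex 525, em 598 nm) in wells containing 15 nM Sfp, 5 uM rhodamine-CoA and 12.5 uM BHQ-2-YbbR at pH 7.6 with 10 mM MgCl2.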
TRPML1 inh = human mucolipin-1 channel inhibition; Q9GZU1; TRPML1-inducible cells, Ca2+ dye fluorescence, FDSS; active compounds read low; inhibition of EC80 agonist-evoked calcium signal; activity change, negative = inhibition, % (test concentration not listed); actives 0.02% (n = 390,000); in the data active means activity change below about -50%; inconclusive means about -30% to -50%; inactive means above about -30%;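 further: stimulus is agonist 54-4 at its EC80 concentration; on the % scale 0 is the no-effect control and ±100 the full control effect; compound concentration not given in the record; the text of the record puts the active cut at -80%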
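Calcium fluorescence in TRPML1-DL cells induced overnight with Tet: a 110 s read after compound pin addition, then a 110 s antagonist read after challenge with 54-4 at 4 uM final (EC80).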
TRPML1 agonist = human mucolipin-1 channel agonism; Q9GZU1; TRPML1-expressing cells, Ca2+ dye fluorescence, FDSS; host cell line not named in the record; reference of the full effect not given here; activation, % (concentration not given with the values); actives 0.12% (n = 410,000); AID 624414; in the data active = activation above about 50%; inconclusive = about 30% to 50%; inactive = below about 30%; further: 0% is about no effect; the text of the record puts the active cut at 80%
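Cells: TRPML1-DL, 1X Tet inducer, ~16 h at 37 degrees C/5% CO2. Dye: ABD Ca8 no-wash + quencher, 45-90 min RT. Read: 10 s baseline, compound add, 110 s agonist phase; 54-4 EC80 (4uM final), 110 s antagonist phase.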
ClpP mod = qHTS Assay for Activators of ClpP | ATP-dependent Clp protease proteolytic subunit (Bacillus subtilis (strain 168)), P80244 | purified B. subtilis ClpP, FRET peptide cleavage, 20 min | Potency, µM (titrated, usually from 57.5 µM), inactives show at the highest dose activity change, negative = active | actives 1.9% (n = 340,000) | AID 651965, 2013; active = well fitted falling curve with a large enough effect; inconclusive = small, poorly fitted or top-dose-only effect; inactive = no such curve, though single readings can be large or run the other way; further: potency means the concentration at half of the fitted maximal effect; the source files actives as falling curves though it sought activators and does not explain the sign; nearly all actives have a fitted effect of over 65% in size; many hits overshoot -100%
Target sequence (P80244 whole entry, looked up): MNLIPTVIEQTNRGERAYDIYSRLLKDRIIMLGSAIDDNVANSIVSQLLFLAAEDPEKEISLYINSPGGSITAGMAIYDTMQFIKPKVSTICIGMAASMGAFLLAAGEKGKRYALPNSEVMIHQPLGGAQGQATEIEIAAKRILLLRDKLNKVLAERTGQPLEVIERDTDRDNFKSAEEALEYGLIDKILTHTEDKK
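Buffer: 100 mM Tris/HCl pH8, 100 mM KCl, 0.05% low protease BSA, 2.5% glycerol, 0.01% Tween-20. ClpP 10 microg/mL final; 20 min RT; delta FRET normalized to ADEP and DMSO controls.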
Menin-MLL FL inh = menin-MLL binding inhibition, fluorescein peptide | Fluorescence polarization, fluorescein-MLL peptide displacement from menin | FP activity change, % at 61.4 µM | 290,000 tested, under 10 active; inconclusive = falling polarisation curve, or a change in total fluorescence; inactive = total fluorescence flat and polarisation flat or rising; no compound was filed as active; the % refers to the polarisation; negative = inhibition;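 further: % of control where 0% means no effect; inhibitors lower the polarisation; unlabelled MLL peptide was the positive control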
PINK1 modulator = changes PINK1 expression; PINK1 immunofluorescence, high-content cytometry, 24 h; Potency, µM (series often up to 76.6 µM), for inactives: at the highest dose activation (PINK1 increase), most hits filed as activators; actives 0.2% (n = 410,000); AID 624263; active = well fitted activation curve with a large enough effect; inconclusive = small, poorly fitted or top-dose-only effect; inactive = flat fitted curve, though single readings scatter; cell line not stated here;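 further: potency means the concentration at half of the fitted maximal effect; % of control where 0% means no effect; nearly all actives have a fitted effect of over 65% in size; a mitochondrial uncoupler was the plate control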
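Fluorescence from anti-PINK1 antibody, together with nuclear and cell stains, was scanned on a laser-scanning cytometer. Before staining, stable-line cells were incubated 24 hours with compounds at 5 concentrations; primary antibody 12 h at 10 degrees C.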
* hit, by the source's call; ? = inconclusive; nt = no result given; & = joins results of further samples; [ ] = dose if it differs, or a comment.

The line under a structure holds: TRPV1 PAM	Sfp inh	TRPML1 inh	TRPML1 agonist	ClpP mod	Menin-MLL FL inh	PINK1 modulator
> COCCN(C(=O)CSc1nn(-c2ccc(F)cc2)c(=S)s1)c1c(N)n(CC(C)C)c(=O)[nH]c1=O
 : -7	nt	-2	-0.3	-5.3%	nt	-0.5%
> CC(C)(C)C(=O)Nc1ccccc1-c1nc2ccccc2[nH]c1=O
 : 13	1%	7	0.0	nt	8.7	1.2%
> COc1ccc(/C=C2\Oc3cc(OCC(=O)N4CCC(C(=O)O)CC4)ccc3C2=O)c(OC)c1
 : 3	-16%	nt	nt	-1.9%	?	0.4%
> CC1CCN(C(=O)Cn2cc(SCC(=O)NCc3ccccc3Cl)c3ccccc32)CC1
 : nt	nt	15	3.6	-6.0%	nt	0.1%
> Fc1ccc(/C=N/n2c(COc3ccccc3)n[nH]c2=S)cc1
 : -7	56µM*	-2	-0.8	?	-6.1	2.3%
> O=C(Cc1ccc(Cl)cc1Cl)OCC(=O)N1CCCCC1
 : -21	0%	-6	-0.8	0.6%	7.1	-2.6%
> COC(=O)C1NN=C(C(=O)c2ccc(Cl)cc2)C1c1ccc(OC)cc1 (stereo not drawn)
 : 0	0%	3	-0.5	-1.5%	1.6	3.9%
> COc1ccc(/C=C\C(=O)NC2CC(=O)N(c3ccc(F)cc3)C2)cc1OC (stereo not drawn)
 : nt	nt	13	-0.5	?	nt	-0.1%
> CCN(CC(=O)NCc1ccc(Cl)cc1)C(=O)c1c(C)noc1C
 : -9	nt	22	1.9	1.2%	nt	0.2%
> CCOc1ccc(-c2nn3c(-c4ccccc4)nnc3s2)cc1
 : -21	?	28	1.0	-8.8%	5.1	7.8%[38.3 µM]
> S=C(NCC1CCCO1)n1nnc2ccccc21 (stereo not drawn)
 : -1	-18%	19	0.7	0.5%	-1.0	30%[38.3 µM]
> Cc1sc(NC(=O)c2ccco2)nc1-c1ccc2c(c1)CC(C)N2C(=O)C1CC1 (stereo not drawn)
 : -12	-18%	-7	1.6	-17%	2.8	2.4%[38.3 µM]
> O=C(NC1CCCCCC1)C1CCCN1S(=O)(=O)c1cccc2cccnc12 (stereo not drawn)
 : ?	-1%	-2	3.2	1.7%	-0.1	6.0%
> Cc1cc(C)nc(N/N=C/c2c(C)oc3ccccc23)n1
 : 6	-3%	6	-0.9	nt	-0.8	5.4%
> Nc1cc(=O)[nH]c(SCc2csc(-c3ccccc3)n2)n1
 : -2	8%	39	1.6	-2.0%	nt	1.7%
> CC(=O)C1=CCC(c2ccc(Cl)c(Cl)c2)N(S(=O)(=O)c2ccc(C)cc2)C1 (stereo not drawn)
 : nt	nt	58	1.4	-2.1%	nt	2.8%
> Cc1ccc(Cl)cc1NC(=O)C1CCC(CNS(=O)(=O)c2cccc3nsnc23)CC1 (stereo not drawn)
 : nt	nt	-11	0.1	1.0%	nt	1.4%
> Cc1cc(C)c(-n2[nH]nnc2=S)c(C)c1
 : 2	28µM*	20	0.1	1.9%	-1.0	0.5%
> O=C(NCC(=O)N1CCCCCC1)c1ccc(Cl)cc1
 : 0	15%	17	0.8	-0.3%	-3.7	2.5%
> COc1ccccc1NC(=O)C1CCN(S(=O)(=O)c2cccc3nonc23)CC1
 : 24	8%	-11	0.0	nt	-1.1	-2.2%
> CCCC(=O)Nc1ccc2c(c1)nc(CN1CCN(C(=O)OCC)CC1)n2C
 : 22	5%	3	2.2	nt	-9.7	5.0%
> COc1cccc(C=NNC(=S)NN=Cc2cccc(OC)c2OC)c1OC
 : nt	nt	4	-1.0	nt	nt	-0.4%
> Cc1ccc(C)c(N(C)S(=O)(=O)c2ccc3[nH]cc(C(=O)NC4CCCC4)c(=O)c3c2)c1
 : nt	nt	18	3.0	3.5%	nt	?
> Cc1onc(-c2ccccc2)c1C(=O)N(Cc1ccccn1)Cc1ccccn1
 : -37	18%	14	0.0	nt	1.6	0.5%
> CCOC(=O)c1sc(NS(=O)(=O)c2ccc(F)cc2)nc1C
 : 14	12%	14	0.9	nt	-4.7	-0.1%
> Cc1cccc(-n2c(C)nc3cc(C(=O)NC4CCCCCC4)ccc32)c1
 : nt	nt	-14	-0.6	0.2%	nt	6.0%
> CCc1nnc(NC(=O)c2cc(C)oc2C)s1
 : -8	-10%	-12	1.9	-1.2%	nt	0.7%
> C[C@H](NS(=O)(=O)c1c(Cl)cccc1Cl)C(=O)NNC(=O)COc1ccccc1F
 : nt	nt	-3	-0.1	-1.1%	nt	-1.1%
> COc1cccc(/C=N/NC(=O)c2ccc(-n3cnnn3)cc2)c1
 : -21	nt	-6	1.3	nt	nt	?
> C/C(=N\O)C(C)(C)NC(=O)Nc1ccc(Cl)cc1
 : -15	10%	-24	0.5	0.8%	-1.6	-1.9%
> COC(=O)C1=C(CSc2nc3c(cc2C#N)CN(C)CC3)OC(N)=C(C#N)C1c1ccccc1F (stereo not drawn)
 : -7	22µM*	37	0.2	-16%	?	2.8%[38.3 µM]
> Cc1nn(C)c(C)c1S(=O)(=O)N1CCCC(C(=O)N2CCN(c3ccc(Cl)cc3)CC2)C1 (stereo not drawn)
 : nt	12%	2	-1.4	0.5%	0.7	-0.7%
> CC(=O)N(CCCN(C)C)c1nc2ccc(C)cc2s1
 : 7	16%	-16	-0.8	nt	4.1	0.3%
> CCOc1cc(C(c2c(O)nc(SC)[nH]c2=O)c2c(O)nc(SC)[nH]c2=O)ccc1O
 : nt	nt	17	0.2	nt	nt	-0.9%
> CCc1nnc(NS(=O)(=O)c2ccc(NS(=O)(=O)c3ccccc3)cc2)s1
 : 1	17%	5	-0.2	0.6%	-2.1	13%[38.3 µM]
> COC(=O)c1ccc(Cn2c(SCc3ccccc3F)nc3ccncc32)cc1
 : nt	nt	4	1.9	0.9%	nt	-0.8%
> Nn1c(SCC(=O)Nc2ccc(F)cc2F)nnc1C1CCCCC1
 : 0	-13%	-8	1.3	-0.1%	1.7	-1.4%
> CCOCCn1cnc2sc(C(=O)NCC(=O)OCC)c(C)c2c1=O
 : 4	10%	4	4.0	1.2%	-0.5	3.4%
> CCC(=O)N1CCc2cc(Br)cc(S(=O)(=O)NCCc3ccccc3)c21
 : nt	nt	1	-0.1	-2.6%	nt	2.0%
> O=C(O)Cn1nc(C(F)(F)F)c2c1CCC2
 : 6	2%	24	-0.7	-2.0%	5.0	3.5%[38.3 µM]
> NC1=C(O)C(=O)C(c2ccccc2)O1 (stereo not drawn)
 : 14	-8%	15	0.9	0.4%	1.7	-2.5%
> O=C(CN1C(=O)NC2(CCCC2)C1=O)OCCOc1ccc(Cl)cc1
 : -5	nt	-9	0.3	-1.2%	nt	4.1%
> CCC(=O)Oc1ccc2c(c1)O/C(=C\c1ccco1)C2=O
 : -11	-13%	-6	?	nt	?	1.4%
> O=C(NCc1ccccc1)N1CCCC1
 : -5	22%	-2	-0.6	-3.7%	-0.7	0.9%
> CCOc1ccc(-c2cnc(SCC(N)=O)nc2N)cc1
 : -11	-6%	5	-0.5	-11%	2.7	-1.3%
> CCO/N=C(\C)c1c(O)c2ccccc2n(C)c1=O
 : 0	0%	-15	-0.2	-0.2%	2.2	0.0%
> Cc1ccccc1C(=O)NNC(=O)c1cccc(Br)c1
 : 19	10%	24	-0.7	0.4%	-5.0	1.6%
> COc1cccc(C(O)c2nc(-c3ccc(Cl)cc3)cs2)c1 (stereo not drawn)
 : nt	nt	nt	-0.7	-0.2%	nt	8.7%
> Cc1ccn2c(C(=O)CSc3ccccc3Cl)c(C)nc2c1
 : -5	16%	5	1.5	2.1%	-1.3	?
> CC1(C(=O)NS(=O)(=O)Cc2ccccc2C(F)(F)F)CCN1C(=O)Cc1ccsc1 (stereo not drawn)
 : nt	nt	nt	-0.5	0.0%	nt	2.6%
> CC1CCCCN1S(=O)(=O)c1ccc(F)c(C(=O)Nc2ccccc2C(F)(F)F)c1 (stereo not drawn)
 : nt	nt	31	2.8	0.0%	nt	2.3%
> Cc1nc(SCC(=O)N2CCN(c3ccccc3)CC2)[nH]c(=O)c1C
 : nt	nt	15	0.5	1.0%	nt	-0.8%
> CN(Cc1ccccc1)c1nc2c(c(=O)n(C)c(=O)n2C)n1CCSc1ncccn1
 : -31	-7%	-2	0.1	0.4%	0.8	0.2%
> CCC1Oc2ccccc2N(CC(=O)NCCN2CCc3ccccc3C2)C1=O (stereo not drawn)
 : -8	-25%	1	0.6	-3.0%	3.9	nt
> CC(=O)c1nc(N2C(=O)CC(Cc3ccccc3)C2=O)sc1C (stereo not drawn)
 : -13	5%	1	-0.4	-1.6%	-0.2	-0.2%
> C/C=C(\C)C(=O)N1CCC(C(=O)c2ccccc2)CC1
 : 25	2%	-9	-0.1	-0.1%	-1.7	0.3%
> CC(C)CCNC(=O)c1cnc2sc(N3CCCCC3)nn2c1=O
 : nt	nt	61	-1.1	4.1%	nt	0.8%
> COc1ccc(SC[C@H](C)CN2CC[C@H](C)CCC2=O)cc1
 : -20	nt	-2	0.0&-0.8	-0.6%&-1.7%	nt	1.6%
> CCOCCCNC(=S)NCCc1ccccc1
 : 8	21%	14	-0.5	1.0%	-0.3	-0.9%
> CC(C)c1ccc(Nc2c(-c3ccc(N4CCOCC4)cc3)nc3ncccn23)cc1
 : nt	nt	-14	-0.7	-17%	nt	-1.1%
> COc1cccc(/C=N/Nc2cc(N3CCOCC3)ncn2)c1O
 : -7	7%	18	-1.1	nt	-1.0	-1.4%
